KCNQ2 enhance: enhances the rat KCNQ2 potassium channel | CHO-K1 KCNQ2, FluxOR thallium flux fluorescence; stronger effect = higher value | B-score at 10 µM | hit rate 0.54% among 310,000;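 active = fluorescence ratio B-score at least 3 SD of library B-scores, with initial fluorescence B-score within 3 SD, cut at about 5.3 in these data; same plate scores as AID 2156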;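 note: B-score of peak minus minimum over baseline fluorescence ratio after K+ and Tl+ stimulus; positive B-score means potentiation of KCNQ2 with more thallium influx and brighter signal; only the inactives scoring about 0 or higher are listed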
Target sequence (O88943 whole entry, looked up): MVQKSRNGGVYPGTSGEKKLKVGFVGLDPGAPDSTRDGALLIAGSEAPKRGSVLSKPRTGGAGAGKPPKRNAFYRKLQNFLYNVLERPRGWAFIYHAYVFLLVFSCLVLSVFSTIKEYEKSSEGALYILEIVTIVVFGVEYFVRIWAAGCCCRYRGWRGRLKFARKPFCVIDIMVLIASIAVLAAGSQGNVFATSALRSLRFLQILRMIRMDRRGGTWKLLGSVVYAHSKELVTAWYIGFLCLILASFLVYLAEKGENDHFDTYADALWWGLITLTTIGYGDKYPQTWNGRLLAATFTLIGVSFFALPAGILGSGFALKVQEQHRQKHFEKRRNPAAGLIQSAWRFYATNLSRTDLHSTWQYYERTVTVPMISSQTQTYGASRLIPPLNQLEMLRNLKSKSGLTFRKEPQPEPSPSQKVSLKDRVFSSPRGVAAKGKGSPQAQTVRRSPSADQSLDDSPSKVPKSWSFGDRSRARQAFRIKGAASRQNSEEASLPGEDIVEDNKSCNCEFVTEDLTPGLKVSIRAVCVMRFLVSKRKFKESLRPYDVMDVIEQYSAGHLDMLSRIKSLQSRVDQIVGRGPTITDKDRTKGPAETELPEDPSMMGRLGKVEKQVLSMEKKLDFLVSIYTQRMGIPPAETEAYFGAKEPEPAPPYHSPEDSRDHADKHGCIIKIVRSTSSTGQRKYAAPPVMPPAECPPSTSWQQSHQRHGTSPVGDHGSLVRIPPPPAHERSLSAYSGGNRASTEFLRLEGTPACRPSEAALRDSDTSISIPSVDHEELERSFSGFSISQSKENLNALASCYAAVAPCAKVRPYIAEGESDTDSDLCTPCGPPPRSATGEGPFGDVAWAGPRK
KCNQ2 enhance baseline: recorded beside KCNQ2 enhance, whose call it bears; B-score; compound at 10 µM; measured here: initial fluorescence intensity artifact check;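 brightness before thallium and not channel activity; 0 = typical well and far values either way flag optical interference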
Numbers without * were called inactive.

Order of values – KCNQ2 enhance, KCNQ2 enhance baseline
- O=C1N=C(N2CCOCC2)S/C1=C\c1cccs1
 : 8.82*, 0.46*
- CCN(C(=O)c1cccs1)c1nc(-c2ccc(OC)cc2)cs1
 : 1.29, -0.62
- CC(C)(C)[C@H]1C=C(C(=O)O)O[C@@H](OCCCCO)C1
 : 0.9, -0.62
- Cn1c(C(=O)O)c(CC(=O)NCc2cccnc2)c2ccccc21
 : 1.51, -0.47
- O=C(CN1C(=O)CSc2ccc(S(=O)(=O)N3CCOCC3)cc21)NCCCN1CCCCC1
 : 1.05, 0.71
- Cc1cc(N/N=C/c2ccccc2O)c2ccccc2n1
 : 2.86, -0.43
- O=C(COC(=O)c1cc(Cl)ccc1[N+](=O)[O-])NCc1ccc(Cl)cc1Cl
 : 1.5, 0.06
- CCc1nnc(NS(=O)(=O)c2ccc(N=Cc3c(C)[nH]n(-c4ccc(Cl)cc4)c3=O)cc2)s1
 : 2.08, -1.35
- CCOC(=O)N1CCN(C(=S)NC(=O)/C=C/c2ccc(C)cc2)CC1
 : 0.5, 0.55
- O=C(Cc1ccccc1)Nc1c[nH]c(=O)[nH]c1=O
 : 0.01, 0.17
- COc1cc2c(cc1OC)C(C)N(CCc1ccc(Cl)cc1)CC2 (configuration not stated)
 : 1.39, 1.34
- O=C(CN1CCCCC1)N/N=C/c1cccc(Cl)c1
 : 0.46, -0.67
- CS(=O)(=O)N1CCN(C(=O)c2ccc(Br)s2)CC1
 : 0.13, -0.99
- CS(=O)c1ccccc1-c1nc(-c2cc(C(F)(F)F)cc(C(F)(F)F)c2)no1 (configuration not stated)
 : 0.67, 0.62
- O=C(Nc1cc(S(=O)(=O)N2CCOCC2)ccc1OCC(F)(F)F)c1ccc(N2CCCC2=O)cc1
 : 1.1, -0.36
- O=C(NCc1ccc(Cl)cc1)C(=O)Nc1nccs1
 : 0.73, 0.84
- NS(=O)(=O)c1ccc(CNS(=O)(=O)Cc2ccc(Cl)cc2)cc1
 : 0.58, -0.59
- CCc1ccc2nc(SCC(=O)N3CC(=O)Nc4ccccc43)c(C#N)cc2c1
 : 0.32, -0.31
- CCCCNC(=O)/C(=C/c1ccccc1)NC(C)=O
 : 1.31, -0.74
- COc1cccc(/C=N/NC(=O)c2cccc([N+](=O)[O-])c2)c1OS(=O)(=O)c1ccc(C)cc1
 : 0.2, 0.06
- CCOC(=O)c1cnc2cc(-c3ccc(Br)cc3)nn2c1C
 : 0.03, -0.05
- CCOC(=O)Cc1nn(C(C)C)c(=O)c2ccccc12
 : 0.43, 0.65
- COc1ccc(C(=O)COc2ccccc2C(N)=O)cc1
 : 0.64, 0.4
- Cc1ccc(NC(=O)CCNS(=O)(=O)c2ccc3c(c2)oc(=O)n3C)cc1C
 : 0.17, -0.03
- CCCCC1S/C(=N/N=C/c2cccs2)NC1=O (configuration not stated)
 : 1.37, 4.63
- CCOc1cccc(-c2c(C(=O)N/N=C/c3ccco3)nnn2-c2nonc2N)c1
 : 0.66, 2.47
- CC(C)Sc1nsc2nc(=O)c(/C=C3\C=Nc4ccccc43)c(N)n12
 : 1.37, -0.36
- COc1ccc(OC)c(NC(=O)c2cc3sccc3n2C)c1
 : 0.11, -0.51
- Cc1ccc(OCCC(=O)OC(C)C(=O)Nc2ccc(Cl)cn2)cc1 (configuration not stated)
 : 1.48, -0.23
- COc1ccc(Nc2cc3n(c(=O)n2)CCc2cc(OC)c(OC)cc2-3)c(C)c1
 : 2.59, 0.45
- COC(=O)c1cc(C(=O)Nc2cc(C)on2)cc([N+](=O)[O-])c1
 : 1.95, 0.59
- O=C(Nc1cccnc1)Nc1ccccn1
 : 0.06, 0.25
- NC(=O)c1ccc(SCC(=O)OCC(=O)N2CCN(C(=O)c3ccco3)CC2)c([N+](=O)[O-])c1
 : 0.19, 1.74
- CCOc1ccc(/C=N/n2cc(-c3ccccc3)[nH]c2=S)cc1
 : 2.6, -0.82
- O=C(CSc1nc2ncc(Cl)cc2[nH]1)N(Cc1ccccc1)C1CCS(=O)(=O)C1 (configuration not stated)
 : 0.19, -0.57
- CC(C)(C)OC(=O)CNC(=O)c1nc[nH]c1C(=O)N1CCN(c2ccccc2)CC1
 : 0.04, -0.6
- Cc1ccc(NC(=O)CSc2nnc(N)s2)cc1S(=O)(=O)N1CCOCC1
 : 0.01, -1.87
- Cc1cccnc1CN1CCN(C(=O)c2cc(COc3ccc4ncccc4c3)on2)CC1
 : 0.5, 0.36
- O=S(=O)(c1ccccc1F)N1CCN(CC(O)c2ccccc2)CC1 (configuration not stated)
 : 0.68, 0.01
- Cc1cccc(NC(=S)NCC(c2cccnc2)N(C)C)c1 (configuration not stated)
 : 0.45, 0.88
- O=C(OCC(=O)C12CC3CC(CC(C3)C1)C2)c1ccccn1
 : 1.43, 0.43
- Cc1ccc(C)c(S(=O)(=O)N2CCCC2CNC(=O)C(=O)NC2CCCC2)c1 (configuration not stated)
 : 0.67, 0.14
- O=C(N/N=C/c1ccncc1)C1CC1(c1ccccc1)c1ccccc1 (configuration not stated)
 : 1.53, 0.71
- C/C(=N\Nc1nc2ccccc2s1)c1ccc(Br)s1
 : 2.87, 1.6
- N/C(=N\OS(=O)(=O)c1ccc(Br)cc1)c1ccncc1
 : 5.61*, -0.03*
- COc1ccc(-n2nc(C(=O)NCC(=O)Nc3cc(OC)ccc3OC)c3ccccc3c2=O)cc1
 : 0.92, -0.91
- CCOC(=O)Cc1nnc(NC(=O)CSc2ccccc2)s1
 : 0.14, 2.28
- CCCCC(=O)Nc1ccc(C(=O)NNC(=S)NC(=O)c2ccco2)cc1
 : 0.9, -0.92
- CCOc1ccccc1NC(=O)CNC(=O)N1CC(=O)Nc2ccccc21
 : 1.65, 0.51
- COc1ccc(OC)c(-c2csc(NC(=O)Cc3ccc(OC)c(OC)c3)n2)c1
 : 1.09, -0.76
- O=C(CSc1nnc(CNC(=O)c2cccs2)o1)Nc1ccc(Br)cc1
 : 1.09, -0.02
- COc1ccccc1CC1CC(=O)N(c2ccccc2)C1=O (configuration not stated)
 : 0.19, -0.01
- Cc1ccc(C)c(-n2cc(CNCCCn3cccn3)c(-c3ccccc3)n2)c1
 : 0.04, -0.66
- C=CCn1c(NCc2ccco2)nc2ccccc21
 : 1.06, 0.57
- CC(=O)Nc1ccc(-c2nc3c(C)cccc3[nH]2)cc1
 : 1.02, -1.58
- O=c1cc(N2CCN(c3ccccc3)CC2)[nH]c(=O)n1Cc1ccc(F)cc1
 : 0.25, -1.44
- Cn1c(=O)c(=O)n(C)c2cc([N+](=O)[O-])c([N+](=O)[O-])cc21
 : 1.44, -1.02
- Cc1ccc(C(=O)N2CCN(C)CC2)cc1[N+](=O)[O-]
 : 0.88, -2.01
- c1ccc2c(c1)[nH]c1nc(SCCN3CCOCC3)nnc12
 : 0.33, 1.72
- COc1ccc(OC)c(NC(=O)CNC(=O)c2cccs2)c1
 : 0.02, -1.6

Shown field by field: part of the list above
> COC(=O)c1cc(C(=O)Nc2cc(C)on2)cc([N+](=O)[O-])c1
- KCNQ2 enhance: 1.95
- KCNQ2 enhance baseline: 0.59
> O=C(Nc1cccnc1)Nc1ccccn1
- KCNQ2 enhance: 0.06
- KCNQ2 enhance baseline: 0.25
> NC(=O)c1ccc(SCC(=O)OCC(=O)N2CCN(C(=O)c3ccco3)CC2)c([N+](=O)[O-])c1
- KCNQ2 enhance: 0.19
- KCNQ2 enhance baseline: 1.74
> CCOc1ccc(/C=N/n2cc(-c3ccccc3)[nH]c2=S)cc1
- KCNQ2 enhance: 2.6
- KCNQ2 enhance baseline: -0.82

(cont.)
Order of values – KCNQ2 enhance, KCNQ2 enhance baseline
- O=C(N/N=C\c1cccs1)c1ccccc1-n1cccc1
 : 0.54, -0.01
- Cc1cc(C)c2c(N)c(-c3nc4ccccc4[nH]3)sc2n1
 : 0.14, -0.4
- O=C(NCC1CCCO1)C12CN(Cc3ccccc3)CC1C(c1cccc([N+](=O)[O-])c1)=NO2 (configuration not stated)
 : 0.27, -1.58
- NC1=NC(=Nc2ccc(Cl)cc2)c2ccccc21
 : 0.42, -2.66
- O=S(=O)(c1ccc(-c2nc3ccccc3s2)cc1)N1CCCC1
 : 0.09, 0.95
- Cc1ccc(C(=O)NCCNc2ncc(C(F)(F)F)cc2Cl)cc1[N+](=O)[O-]
 : 1.63, -1.82
- CC1=C(C(=O)OCC2CCCO2)C(c2ccc(Cl)c(Cl)c2)NC(=O)N1 (configuration not stated)
 : 0.99, -1.9
- Cc1ccc(F)cc1CNC(=O)C1CCC(=O)N(CCCN2CCCC2=O)C1 (configuration not stated)
 : 0.46, 0.17
- CC(=O)c1ccc(NC(=O)/C(Cl)=C/c2ccccc2)cc1
 : 1.39, -1.27
- CCCC(=O)NC(=S)Nc1cccc(NC(=O)c2ccc(Cl)cc2Cl)c1
 : 0.08, -0.8
- CCOc1ccc2c(c1)c1nnc(SCC(=O)N3CCCCC3C)nc1n2C (configuration not stated)
 : 3.08, -1.98
- COc1cccc(C(C(=O)NC2CCCCC2)N(C(=O)c2ccccn2)c2cccnc2)c1 (configuration not stated)
 : 1.31, 0.27
- O=C(Nc1ccc(Cl)cc1)C1CCCC1
 : 0.6, -0.4
- Cn1nnnc1SCCNCc1cc(Cl)ccc1OCc1ccccc1
 : 0.05, -0.01
- CCn1c2ccc(OC)cc2c2nc3ccccc3nc21
 : 0.01, -0.54
- c1ccc(CCc2nn3c(Cn4nnc5ccccc54)nnc3s2)cc1
 : 1.7, 0
- CCCCOC(=O)c1cccc(NC(=O)CCC(=O)O)c1
 : 0.37, -2.27
- Cc1nnsc1C(=O)N1CCC(CO)(Cc2ccccc2Cl)CC1
 : 0.51, -2.22
- CCOc1ccc(NC(=S)NC23CN4CN(CN(C4)C2)C3)cc1
 : 0.07, 2.73
- CCOC(=O)c1oc2ccccc2c1CN1CCN(c2ccccc2)CC1
 : 0.28, -1.45
- CCSc1sc(CC)cc1C=O
 : 0.51, 0.94
- Cc1cc(C)c2c(n1)sc1c(N3CCCCC3)ncnc12
 : 1.36, 2.36
- COc1ccc(NS(=O)(=O)c2ccc(NC(=O)c3ccc(N(C)S(C)(=O)=O)cc3)cc2)c(OC)c1
 : 0.13, -0.29
- COc1ccc(CCNC(=O)C(=O)NCC2OCCN2S(=O)(=O)c2cccs2)cc1OC (configuration not stated)
 : 1.72, 0.1
- CSCCC(NC(=O)c1ccco1)C(=O)Nc1ccncc1 (configuration not stated)
 : 1.19, -1.25
- CCSc1nnc(CNC(=O)C23CC4CC(CC(C4)C2)C3)n1C1CCCCC1
 : 1.04, -0.59
- CC(/C=N/NC(=O)c1cc(C2CC2)[nH]n1)=C\c1ccccc1
 : 1.13, 0.34
- O=C(CN1C(=O)C2C3C=CC(C3)C2C1=O)NCCc1ccccc1Cl (configuration not stated)
 : 0.28, -0.05
- S=c1[nH]nc(-c2ccc(Cl)cc2Cl)n1-c1ccccc1
 : 0.58, -0.97
- Cc1cccc(NC(=O)COc2ccccc2C)n1
 : 0.04, 0.81
- O=C(O)CCN1C(=O)c2ccc(Oc3ccc4c(c3)C(=O)N(CCC(=O)O)C4=O)cc2C1=O
 : 1.29, 0.94
- O=C(NC1CCCCC1)C(c1ccncc1)N(Cc1ccc(F)cc1)C(=O)c1ccccn1 (configuration not stated)
 : 1.02, -0.99
- COc1ccc(CC(=O)N2CC3(C)CC2CC(C)(C)C3)cc1OC (configuration not stated)
 : 0.53, 0.79
- Cc1nc2c(C(=O)N3CCOCC3)cnn2c(C)c1Cc1cccc(Cl)c1
 : 1.49, 0
- Cc1ccc(N2CC(C(=O)Nc3ccc4c(c3)OCCO4)CC2=O)cc1 (configuration not stated)
 : 0.29, 2.11
- CC(C)(C)OC(=O)N1CC(O)CC1C(=O)OCC(=O)c1ccccc1 (configuration not stated)
 : 1.22, 0.12
- O=C(Nc1ccc(Cl)cc1)N1CCc2[nH]c3ccccc3c2C1
 : 0.98, -0.49
- CN(C)S(=O)(=O)c1cccc(COC(=O)c2ccc(Cl)cc2O)c1
 : 0.52, -0.24
- O=C(c1cnccn1)N(Cc1ccco1)C1(C(=O)NC2CCCC2)CCCCC1
 : 0.65, -0.13
- O=C(C1CCC(=O)N1Cc1ccccc1Cl)N1CCN(c2ccc(F)cc2)CC1 (configuration not stated)
 : 0.25, -0.75
- O=C(Nc1cccc(Cl)c1)c1cnc[nH]1
 : 0.56, 0.09
- C=CCc1cc(Cl)ccc1OCCNCCOC
 : 0.75, -3.78
- COc1cccc(NC(=O)C2CCCN2S(=O)(=O)c2ccc3c(c2)C(C)(C)C(=O)N3C)c1 (configuration not stated)
 : 0.19, -1.08
- CC(=O)c1ccc(NC(=O)CNCc2cccs2)cc1
 : 0.38, 0.32
- Cc1ccc(CNC(=O)C(=O)NCC(c2ccco2)N2CCOCC2)cc1 (configuration not stated)
 : 1.48, -1.73
- C[n+]1ccccc1N1CCN(c2ccccc2Cl)CC1
 : 0.74, -1.91
- COc1cc2c(cc1NC(=S)NC(=O)c1c(OC)cccc1OC)oc1ccccc12
 : 0.45, -1.74
- CC(C)COC(=O)N1C[C@H](O)C[C@H]1C(=O)Nc1ccc(Cl)cc1
 : 0.03, 1.18
- Cc1ccc(C)c(NS(=O)(=O)c2cc(C(=O)Nc3cccc(N(C)S(C)(=O)=O)c3)ccc2C)c1
 : 0.01, -0.9
- c1ccc(Nc2nc(N3CCCC3)nc(N3CCCC3)n2)cc1
 : 0.1, 0.44
- CCC(=O)n1nc(-c2ccccc2)nc1N
 : 0.45, 0.52

Not all compounds are listed; the hit share may differ from the screen's.
